Screening data as filed in PubChem BioAssay.
ALR inh: blocks human ALR sulfhydryl oxidase activity. actives 3.8% (n = 290,000). inhibition, % (no concentration beside the values). P55789. purified ALR, DTT oxidation, H2O2 HRP-luminol luminescence;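 active = mean and each replicate at 75% or more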;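 note: stock transfer was 7.5 nL into about 7.5 µL; 0% = neutral wells and 100% = wells with inactivated enzyme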
Ecoli growth: inhibitors of Escherichia coli growth. OD600, 23 h; stronger effect = lower value. OD600 absorbance (no concentration beside the values). actives 0.21% (n = 330,000). AID 1053175;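 active = OD600 absorbance below the run mean of sample wells minus 3.6 SD, in any replicate, cut at about 0.56 in these data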;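 note: stock transfer was 300 nL into about 60 µL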
FGF22 binding: shifts melting point of recombinant human FGF22. recombinant FGF22 thermal shift, SYPRO orange fluorescence; percent of sucrose octasulfate shift, DMSO zero. calls only at 9.99 µM. actives 1.5% (n = 340,000). AID 651658;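 active = melting point raised past a set limit in the mean and every replicate; three in four hits are not shown here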
HNF4A DNA FP: change in binding of human HNF4 alpha to DNA; P41235; HNF4a-FITC DNA binding, fluorescence polarization, 1 h; activity change, % at 10 µM; actives 0.3% (n = 360,000); in the data active = activity change above about 30%, passing the limit was not always enough;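 note: controls were the assay level and a saturating level of protein; the project sought stronger binding though the title names inhibitors; some compounds called inactive have numbers as strong as hits; positive values seem to mean higher polarization but the record does not say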
Beta2AR agonist: activates human beta-2 adrenergic receptor causing internalization; response, % (test concentration not listed); Am2.2-beta2AR cells, FAP receptor internalization, flow cytometry; reference of the scale not given here; P07550; actives 0.43% (n = 340,000);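 active = response above a set limit, near 3 SD of response in nonfluorescent compounds, cut at about 42% in these data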;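 note: stock transfer was 100 nL into about 11 µL; a reference agonist was the positive control; negative values mostly stem from fluorescent compounds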
LANA-H2B inh: blocks KSHV LANA binding to histone H2A/H2B; AID 2629; inhibition, % (no concentration beside the values); Q9QR71; cell-free LANA-H2A/H2B peptide, fluorescence polarization; actives 0.6% (n = 320,000); in the data active = inhibition mostly above about 10%, no sharp cut-off; inactive = mostly below about 6.7%;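 note: stock transfer was 7.5 nL into about 10 µL; 0% = median of vehicle wells and 100% = median of positive control wells; one replicate is shown; the record names a cut of 25% in any replicate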
Target sequence (Q9QR71 whole entry, looked up): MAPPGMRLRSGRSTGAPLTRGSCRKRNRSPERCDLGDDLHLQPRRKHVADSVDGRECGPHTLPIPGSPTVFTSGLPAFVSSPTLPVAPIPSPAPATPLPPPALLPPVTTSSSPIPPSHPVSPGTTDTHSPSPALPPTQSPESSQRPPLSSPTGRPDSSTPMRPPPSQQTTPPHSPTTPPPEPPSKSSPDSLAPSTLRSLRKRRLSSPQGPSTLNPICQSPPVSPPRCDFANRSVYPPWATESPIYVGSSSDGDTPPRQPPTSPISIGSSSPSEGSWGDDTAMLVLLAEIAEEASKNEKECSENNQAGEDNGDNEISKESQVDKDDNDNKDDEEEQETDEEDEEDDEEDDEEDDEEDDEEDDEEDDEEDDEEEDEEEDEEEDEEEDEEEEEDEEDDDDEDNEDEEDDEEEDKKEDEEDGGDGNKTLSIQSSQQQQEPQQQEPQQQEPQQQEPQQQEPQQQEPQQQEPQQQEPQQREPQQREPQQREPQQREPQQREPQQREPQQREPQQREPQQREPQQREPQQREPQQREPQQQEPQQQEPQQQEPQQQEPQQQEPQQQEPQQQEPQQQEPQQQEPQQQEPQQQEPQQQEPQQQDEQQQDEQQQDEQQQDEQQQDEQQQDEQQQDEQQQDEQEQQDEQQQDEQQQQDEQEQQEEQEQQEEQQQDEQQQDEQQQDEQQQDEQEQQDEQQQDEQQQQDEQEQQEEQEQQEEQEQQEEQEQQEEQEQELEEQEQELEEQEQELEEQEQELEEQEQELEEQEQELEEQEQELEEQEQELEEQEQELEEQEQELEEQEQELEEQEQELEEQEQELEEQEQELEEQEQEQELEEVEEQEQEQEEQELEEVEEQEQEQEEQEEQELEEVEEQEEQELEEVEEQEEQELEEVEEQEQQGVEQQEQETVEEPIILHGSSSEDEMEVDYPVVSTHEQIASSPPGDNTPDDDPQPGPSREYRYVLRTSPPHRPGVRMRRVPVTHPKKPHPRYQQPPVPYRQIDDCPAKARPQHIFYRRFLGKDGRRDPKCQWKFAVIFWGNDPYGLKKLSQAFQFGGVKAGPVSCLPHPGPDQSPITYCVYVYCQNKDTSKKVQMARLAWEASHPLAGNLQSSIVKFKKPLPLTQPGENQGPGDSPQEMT
UCH37 DUB inh: human UCH37 deubiquitinating enzyme inhibition; Q9Y5K5; actives 0.33% (n = 330,000); AID 588478; purified proteasome/UCH37, Ub-AMC cleavage fluorescence; inhibition, % (test concentration not listed);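 active = mean of two replicates above 20%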;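 note: 0% = compound-free wells with enzyme and 100% = wells lacking proteasome; stock transfer was 100 nL into about 20 µL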
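assay system = human UCH37 enzyme supplied as purified proteasome complex | amount = proteasome at 0.15 nM in the dispensed enzyme solution | schedule = 30 min compound-proteasome preincubation then 25 min substrate reaction, room temperature | measured by = fluorescence, ex 355 nm, em 460 nm | benchmarks = no-proteasome wells (full inhibition) and compound-free wells (no inhibition)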
An asterisk follows results filed as active; i = inactive; nt = no result given. The list is partial; the hit share may differ from the screen's.

ALR inh | Ecoli growth | FGF22 binding | HNF4A DNA FP | Beta2AR agonist | LANA-H2B inh | UCH37 DUB inh | Molecule
-14 | 0.67 | i | 1.5 | -4 | 100* | 0.0 | COc1ccc(S(=O)(=O)N2CCOC2CNC(=O)C(=O)NCc2ccccc2OC)cc1 (stereo unspecified)
55 | 0.73 | nt | -10 | -9 | 0.3 | 2.0 | O=C(CCCCCn1c(SCc2ccncc2)nc2ccccc2c1=O)NCc1ccco1
41 | 0.68 | nt | 2.6 | 4 | 15 | 2.5 | O=C(NNC(=S)Nc1ccc(Cl)cc1Cl)C1CC1
nt | 0.66 | i | 3.1 | 13 | nt | 0.8 | COc1ccc(S(=O)(=O)N2CCOCC2)cc1NC(=O)c1cc2ccccc2o1
-3 | nt | nt | -0.5 | -1 | -0.6 | nt | C/C(=N\NC(=O)C1CC1c1ccccc1)c1ccc(C)s1 (stereo unspecified)
-14 | 0.6 | i | -6.4 | -6 | 0.6 | 4.4 | O=C(c1ccc(-c2ccccc2Cl)s1)N1CCOCC1
-5 | 0.64 | i | -3.4 | 8 | 3.2 | 1.4 | CSc1cccc(NC(=O)Cn2cnc(S(=O)(=O)N3CCCC3)c2)c1
10 | 0.75 | nt | -0.2 | 4 | -3.9 | 5.8 | COc1cc(C(=O)NCCOc2cc(C)cc(C)c2)c(Br)c(OC)c1OC
2 | 0.7 | nt | -1.6 | 5 | 3.7 | 0.4 | Cc1cc(C)c(S(=O)(=O)Nc2nnc(C)s2)c(C)c1
-3 | nt | i | 2.2 | -3 | -3.8 | nt | Cc1ccc(S(=O)(=O)N2CCN(CC(=O)N/N=C\c3ccncc3)CC2)cc1
-19 | 0.71 | i | -0.9 | 1 | 1.7 | -3.1 | CCOC(=O)N1CCN(C(=O)C2CCC(=O)N(CCCc3ccccc3)C2)CC1 (stereo unspecified)
0 | nt | nt | -0.2 | 0 | -1.6 | nt | O=C(N/N=C/c1ccc(OC(F)F)cc1OC(F)F)c1ccc(Br)cc1
nt | nt | i | -1.7 | 8 | -0.7 | -17 | COC(=O)[C@@]12CCCCN1[C@H](c1ccc(-c3cc(C(C)=O)cs3)c(OC)c1)[C@H]1C(=O)N(C)C(=O)[C@H]12
-5 | 0.68 | i | -0.6 | -3 | 5.9 | -2.0 | CCN1CCC(NC(=O)c2cc(OC)c(OC)cc2OC)CC1
-12 | 0.69 | i | 0.1 | -6 | 2.8 | 5.6 | Cc1ccc(OCCCC(=O)N(C)CC(=O)Nc2ccccc2Br)cc1
-6 | nt | i | 2.2 | 3 | 4.0 | nt | C/C(=N\NC(=O)c1ccc(-n2cnnn2)cc1)c1ccc(Cl)cc1
9 | 0.74 | nt | -0.2 | 3 | -1.4 | 2.9 | C=CCN(c1ccc(C(=O)N2CCN(c3ccc(F)cc3)CC2)cc1)S(C)(=O)=O
82* | 0.71 | nt | 1.5 | 0 | -1.4 | -0.3 | CCCS(=O)(=O)N1CCCC(C(=O)NCCCN(C)c2ccccc2)C1 (stereo unspecified)
nt | 0.7 | i | 3.0 | 0 | 7.7 | 2.7 | CCN(CC(=O)Nc1c(F)cccc1F)C(=O)/C=C/c1ccc(C)cc1
-27 | 0.73 | nt | -11 | -9 | 4.2 | 0.0 | Cn1c(O)c(N=NC(=O)c2cc(-c3cccs3)nc3ccccc23)c2ccccc21
-11 | 0.7 | i | -1.3 | -1 | 0.3 | 9.3 | CNc1ccc(S(=O)(=O)NCC(=O)NCCCc2ccccc2)cc1[N+](=O)[O-]
-4 | 0.7 | i | 0.3 | 7 | 3.8 | -23 | COc1ccc(/C=C/C(=O)OCC(=O)Nc2ccc(S(N)(=O)=O)cc2)cc1OC
6 | 0.55 | i | 1.9 | 2 | -8.1 | 6.4 | COc1ccccc1C(C[N+](=O)[O-])c1c(N)n(C)c(=O)n(C)c1=O (stereo unspecified)
-1 | 0.64 | i | -1.3 | -5 | 0.8 | 3.0 | CN(c1ccccc1)S(=O)(=O)c1cccc(C(=O)NNC(=O)c2ccccc2)c1
-6 | 0.72 | i | 0.1 | -4 | 2.1 | 1.5 | COc1ccccc1CNS(=O)(=O)c1c(C(=O)N2CCCCCC2)c(C)n(C)c1C
1 | 0.75 | nt | 0.4 | -2 | -0.1 | 1.7 | O=C(NCCN1CCN(c2ccccc2F)CC1)C1c2ccccc2C(=O)N2CCc3ccccc3C12 (stereo unspecified)
0 | 0.67 | i | 2.4 | -1 | -0.4 | 0.6 | NS(=O)(=O)c1ccc(CCNc2ccc(C(F)(F)F)cn2)cc1
3 | 0.66 | i | 5.3 | 9 | -2.9 | 0.5 | Cc1cc(C)cc(N(C(=O)c2cccs2)C2C=CS(=O)(=O)C2)c1 (stereo unspecified)
0 | nt | i | -1.6 | -2 | 2.8 | nt | C/C(=N\NC(N)=S)c1ccc(-n2ccnc2)cc1
2 | 0.64 | i | 3.6 | -2 | 3.7 | 0.6 | COc1ccc(CNC/C=C/c2ccccc2)cc1
-19 | 0.69 | nt | -1.2 | -2 | 8.6 | -0.7 | CC(c1nc2ccccc2c(=O)[nH]1)N(C)c1ccc2ccccc2c1 (stereo unspecified)
-5 | 0.69 | i | -1.1 | -2 | -4.3 | -0.1 | CCN(c1ccc(OC)cc1)S(=O)(=O)c1nnc(NC(=O)CC(C)C)s1
-1 | 0.79 | nt | -4.9 | -8 | -0.2 | 6.4 | CCCP(=O)(CC(=O)O)c1ccccc1 (stereo unspecified)
3 | 0.66 | i | -0.4 | 0 | 3.5 | 4.0 | COc1ccc(OCc2nnc(SCC(=O)Nc3ccccc3C#N)o2)cc1
-6 | 0.65 | i | -0.5 | -1 | -1.7 | 3.5 | COCCn1c(SCC(=O)NN2C(=O)NC(C)(c3ccccc3)C2=O)nnc1-c1ccncc1 (stereo unspecified)
nt | 0.68 | nt | -0.8 | 2 | nt | 12 | Oc1c(C2=NCCNC(C(F)(F)F)=C2)ccc2ccccc12
nt | 0.63 | i | 2.4 | -1 | nt | -0.5 | CCNC1(C#N)CCN(Cc2ccccc2)CC1
nt | 0.61 | i | 2.6 | -7 | 3.4 | -0.4 | CN(CC(=O)Nc1ccc(Cl)cc1)C(=O)CNC(=O)c1ccc(Br)o1
98* | 0.69 | nt | 2.5 | -14 | 2.3 | 2.4 | CN(c1cccc(Cl)c1)S(=O)(=O)c1cccc(C(=O)NC2=NCCS2)c1
nt | 0.72 | nt | -2.2 | 1 | nt | 2.1 | CC1CCC(C(C)C)C(OC(=O)CSc2nnc(N)s2)C1 (stereo unspecified)

One compound at a time (already shown). Screens in order: ALR inh, Ecoli growth, FGF22 binding, HNF4A DNA FP, Beta2AR agonist, LANA-H2B inh, UCH37 DUB inh
Shown for CC(c1nc2ccccc2c(=O)[nH]1)N(C)c1ccc2ccccc2c1 (stereo unspecified) → -19, 0.69, nt, -1.2, -2, 8.6, -0.7
Shown for CCNC1(C#N)CCN(Cc2ccccc2)CC1 → nt, 0.63, i, 2.4, -1, nt, -0.5
Shown for CCN(c1ccc(OC)cc1)S(=O)(=O)c1nnc(NC(=O)CC(C)C)s1 → -5, 0.69, i, -1.1, -2, -4.3, -0.1
Shown for CC1CCC(C(C)C)C(OC(=O)CSc2nnc(N)s2)C1 (stereo unspecified) → nt, 0.72, nt, -2.2, 1, nt, 2.1
Shown for Oc1c(C2=NCCNC(C(F)(F)F)=C2)ccc2ccccc12 → nt, 0.68, nt, -0.8, 2, nt, 12

(further entries)
ALR inh | Ecoli growth | FGF22 binding | HNF4A DNA FP | Beta2AR agonist | LANA-H2B inh | UCH37 DUB inh | Molecule
11 | 0.69 | i | -6.3 | -2 | 2.5 | 4.1 | CCOC(=O)NNc1ccc(C(F)(F)F)cn1
nt | 0.66 | i | -4.2 | 6 | nt | 0.7 | CCC1(c2ccccc2)SC(N)=NC1=O (stereo unspecified)
-1 | 0.67 | i | 4.7 | -1 | 2.0 | 0.6 | CSc1nc(C)cc(Oc2ccccc2)n1
-1 | 0.7 | i | 2.2 | -7 | 4.1 | 0.5 | O=C1CCC(c2ccccc2)=NN1Cc1c(F)cccc1Cl
0 | 0.69 | i | -1.9 | -5 | -1.7 | -5.2 | Cn1cccc1C(=O)OCc1nc2ccccc2c(=O)[nH]1
-3 | 0.68 | i | -2.9 | -2 | 0.5 | 2.5 | COC(=O)c1ccc(S(=O)(=O)NCc2ccco2)o1
0 | 0.63 | i | 1.2 | 7 | -7.6 | 2.9 | Cc1occc1C(=O)O/N=C(\N)c1ccc(Cl)cc1
nt | 0.74 | i | 0.3 | -2 | 8.9 | 3.2 | O=C(O)c1nn(CC(=O)N2CCCCCC2)c(=O)c2ccccc12
-15 | 0.77 | i | 6.1 | 1 | 0.9 | 1.0 | CCN(CC)CCNC(=O)c1ccc(CS(=O)(=O)c2ccc(Br)cc2)o1
-3 | 0.68 | nt | 0.1 | -9 | -1.3 | -0.3 | O=C(O)c1cccc(S(=O)(=O)Nc2ccccc2Cl)c1
5 | 0.65 | i | 1.4 | -9 | 1.4 | 1.1 | Cc1csc(NC(=O)c2ccc(Cn3nc(C)c(Br)c3C)o2)n1
-6 | 0.67 | i | 0.7 | 1 | 3.6 | 2.2 | CCOC(=O)C(Cc1ccccc1)NC(=O)CCCC(=O)c1ccccc1 (stereo unspecified)
41 | nt | i | 4.2 | -1 | 1.4 | nt | Cc1[nH]c2ccccc2c1/C=N/NC(=O)CNC(=O)COc1ccccc1
nt | nt | i | -0.1 | -3 | nt | nt | NS(=O)(=O)c1ccc(Cl)c(S(N)(=O)=O)c1
nt | 0.64 | i | -44 | 10 | nt | 4.5 | NC(=S)n1[nH]c(-c2ccc([N+](=O)[O-])cc2)c(N=Nc2cccc(Cl)c2)c1=O
-10 | 0.69 | nt | 2.3 | -3 | -0.9 | 5.2 | CCOC(=O)CSc1nc(C)c(C(C)=O)cc1C#N
1 | 0.68 | i | 0.1 | 0 | -0.1 | 2.0 | Cc1cccc(NC(=O)Cn2nnc3ccccc32)c1
-1 | 0.68 | nt | -2.9 | -15 | -2.4 | 4.1 | COc1ccc(Cl)cc1C(=O)NNC(=O)c1cccc(S(=O)(=O)N(C)C)c1
-4 | 0.72 | i | 6.0 | 1 | 0.9 | 2.2 | Cc1cc(C)c2cc(C(=O)N(C)C3CCN(C)CC3)[nH]c2c1
6 | nt | nt | -4.9 | -2 | 1.4 | 0.7 | CCOC(=O)[C@@H]1[C@H]2COc3cc(OC)ccc3[C@H]2N2C(=O)N(c3ccc(OC)cc3)C(=O)[C@]12C
13 | 0.66 | i | -0.2 | 13 | -7.9 | 7.1 | COc1cc2cc(-c3ccc(O)cc3O)nc(C)c2cc1OC
nt | 0.71 | nt | 8.4 | -12 | nt | -2.6 | O=c1c2[nH]c3ccccc3c2ncn1Cc1cccnc1
-8 | 0.75 | nt | 1.2 | -2 | -7.1 | -55 | CCOC(=O)Cc1cc(-c2ccc(OC)cc2)nc2ccc3ccccc3c12
-8 | 0.63 | i | -0.3 | -4 | -4.1 | -0.9 | CC(c1ccncn1)N(C)C(=O)c1ccc2oc(Cc3ccccc3)nc2c1 (stereo unspecified)
nt | 0.68 | nt | 2.5 | -12 | nt | 4.0 | Cc1ccc(S(=O)(=O)/C(C#N)=C/c2c(N3CCOCC3)nc3ccccn3c2=O)cc1
-2 | 0.69 | nt | 3.6 | -4 | 1.4 | 2.3 | COC(=O)CCC(=O)COc1ccccc1C#N
1 | 0.68 | i | 3.1 | -2 | -5.3 | 4.1 | Cc1ccc(NS(=O)(=O)c2ccc(C(=O)NCc3cccnc3)cc2)cc1
-2 | 0.65 | i | -3.6 | 3 | -2.3 | 3.7 | CN(Cc1ccc(Cl)cc1)C(=O)c1cc(S(=O)(=O)N2CCOCC2)ccc1N1CCCC1
-3 | 0.71 | i | 5.7 | 6 | -5.2 | 4.5 | CCOc1ncc(S(=O)(=O)N2CCN(CC)CC2)cc1C(=O)O
-1 | 0.68 | i | 0.7 | 15 | 4.6 | 5.7 | Cc1cccn2c(=O)c(C=C(C#N)C#N)c(N3CCN(c4cccc(Cl)c4)CC3)nc12
